High-throughput results deposited in PubChem by National Center for Advancing Translational Sciences (NCATS).
FEN1 inh: blocks human flap endonuclease 1. P39748. Recombinant FEN1 flap cleavage, fluorescence, 15 min. Potency, µM (series often up to 114 µM), for inactives: at the top dose activity change, negative = inhibition, hits mostly inhibitors. 0.35% of 390,000 active. AID 588795; note: nearly all actives have a fitted effect of over 65% in size
Target sequence (P39748 whole entry, looked up): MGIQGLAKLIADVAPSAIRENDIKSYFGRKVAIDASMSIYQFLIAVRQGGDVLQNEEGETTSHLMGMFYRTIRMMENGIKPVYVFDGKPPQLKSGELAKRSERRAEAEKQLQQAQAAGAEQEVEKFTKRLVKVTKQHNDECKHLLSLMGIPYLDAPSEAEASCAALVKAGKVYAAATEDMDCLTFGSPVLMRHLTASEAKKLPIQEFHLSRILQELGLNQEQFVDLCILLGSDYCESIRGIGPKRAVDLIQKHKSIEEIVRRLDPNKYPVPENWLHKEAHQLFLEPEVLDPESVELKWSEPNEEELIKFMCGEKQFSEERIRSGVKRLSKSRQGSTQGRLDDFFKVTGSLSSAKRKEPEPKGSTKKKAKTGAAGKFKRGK
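Quantitative HTS format: each compound was titrated, incubated with 10 nM nuclease for 15 min at room temperature, then challenged with flap substrate at 50 nM final. Signal change over 15 min gave concentration–effect curves.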
N370S GC: N370S glucocerebrosidase modulation, Gaucher chaperone candidate. Potency, µM (highest dose often 59.4 µM), inactives show at the highest dose activity change, negative = inhibition, hits mostly inhibitors. 0.092% of 330,000 active. AID 2101. P04062. N370S GC spleen homogenate, 4MU-glucoside fluorescence;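 note: 0% = full enzyme activity and -100% = no enzyme basal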
* marks the source's active call; other numbers are inactive results; ? = inconclusive; / = no result given; & = joins results of further samples. Calls come from the whole dose curve; as a rule, active = well fitted curve in the direction sought with a large enough effect; inconclusive = small, poorly fitted or top-dose-only effect, or another doubt; inactive = no such curve, though single readings can be large; an effect the other way counts as inactive or inconclusive. Unless noted, % is set by controls: 0 for no effect and ±100 for the full control effect; potency is the fitted concentration of half-maximal effect. Only part of the results is shown; most or all hits stand in other tables.

SMILES	FEN1 inh	N370S GC
CC(C)(C)c1ccccc1OCC(=O)Nc1ncn[nH]1	9.5%	1.8%
CCN(CC)C(=O)c1[nH]cnc1C(=O)N[C@@H](C)c1ccccc1	-5.9%	/
Cc1cccc(OCc2nnc(SCC(=O)Nc3sc(C)c(C)c3C#N)n2C)c1	2.0%	-19.3%
COc1cc2c(cc1OC)CN(c1ccc3ccccc3n1)CC2	-30.9%	2.4%
O=C1NC2(CCCCCC2)N=C1c1ccc(F)cc1	2.4%	?
COc1ccc(CNC(=O)CSC(=S)N2CCCC2)cc1	0.6%	2.1%
CCCn1c(=O)n(CC(=O)NCC2CCCO2)c(=O)c2c3c(sc21)COC(C)(C)C3 (centres undefined)	4.2%	-10.7%
N#CCCn1cc(C(=O)CN2C(=O)C(=O)N(C3CCCC3)C2=O)c2ccccc21	-2.3%	-11.2%
Cn1c(=O)oc2cc(S(=O)(=O)N3CCC(C(=O)Nc4ccc(F)c(Cl)c4)CC3)ccc21	9.8%	/
COc1ccc(N(CCC(=O)NCCc2ccccc2)S(=O)(=O)c2ccc(C)cc2C)cc1	-6.4%	/
COc1cc(C(=O)N/N=C/c2ccc(OC(=O)N3CCOCC3)cc2)cc(OC)c1OC	-7.3%	-8.4%
CCOC(=O)c1[nH]c(C)c(C(=O)OCC(=O)NC(=O)NC(C)(C)C)c1C	6.1%	18.3%
OC(c1ccccn1)C1CCN(Cc2nc(C(c3ccccc3)c3ccccc3)no2)CC1 (centres undefined)	4.2%	-6.4%
O=c1c2[nH]c3ccc(Br)cc3c2ncn1Cc1ccncc1	8.6%	10.3%
Cc1cc(C)n2nc(C(=O)Nc3cccc(S(=O)(=O)N(C)c4ccccc4)c3)nc2n1	14.2%	-6.3%
O=C(NCc1ccco1)/C(=C\c1ccco1)NC(=O)c1ccccc1Cl	0.6%	-3.4%
Cn1c(=O)c2c(nc(N3CCCCC3)n2CCSc2nc3ccccc3s2)n(C)c1=O	-5.4%	8.1%
COc1ccc(NC(=O)CN(C)S(=O)(=O)c2cccc3nsnc23)cc1OC	1.8%	3.8%
CC(=O)c1ccc(C(=O)N2CCCC(C(=O)c3ccc(Cl)cc3)C2)s1 (centres undefined)	16.5%	-4.5%
Cc1ccc2cn[nH]c2c1NC(=S)NC(=O)c1ccccc1	-5.8%	2.3%
CC(NS(C)(=O)=O)C(c1cccs1)N1CCN(c2ccc(F)cc2)CC1 (centres undefined)	8.9%	-11.2%
CCCC[n+]1ccn(C2=C([O-])c3ccccc3C(=O)/C2=N\S(=O)(=O)c2ccc(Br)cc2)c1	-0.6%	9.2%
CNc1cnn(-c2ccc(C)cc2)c(=O)c1Sc1ccc(C)cc1	3.1%	-3.2%
O=C(NCCO)c1cccc(S(=O)(=O)N2CCCCC2)c1	5.6%	9.8%
O=C(/C=C/c1ccc(F)cc1)NC(=S)N1CCN(c2ccccn2)CC1	-15.2%	8.3%

Reformatted bar-delimited: part of the list above
Molecule | FEN1 inh | N370S GC
CC(NS(C)(=O)=O)C(c1cccs1)N1CCN(c2ccc(F)cc2)CC1 (centres undefined) | 8.9% | -11.2%
CCCC[n+]1ccn(C2=C([O-])c3ccccc3C(=O)/C2=N\S(=O)(=O)c2ccc(Br)cc2)c1 | -0.6% | 9.2%

A portion from the list above, for reference:
SMILES	FEN1 inh	N370S GC
CC(C)(C)c1ccccc1OCC(=O)Nc1ncn[nH]1	9.5%	1.8%
CCN(CC)C(=O)c1[nH]cnc1C(=O)N[C@@H](C)c1ccccc1	-5.9%	/
Cc1cccc(OCc2nnc(SCC(=O)Nc3sc(C)c(C)c3C#N)n2C)c1	2.0%	-19.3%
COc1cc2c(cc1OC)CN(c1ccc3ccccc3n1)CC2	-30.9%	2.4%
O=C1NC2(CCCCCC2)N=C1c1ccc(F)cc1	2.4%	?
COc1ccc(CNC(=O)CSC(=S)N2CCCC2)cc1	0.6%	2.1%
CCCn1c(=O)n(CC(=O)NCC2CCCO2)c(=O)c2c3c(sc21)COC(C)(C)C3 (centres undefined)	4.2%	-10.7%
N#CCCn1cc(C(=O)CN2C(=O)C(=O)N(C3CCCC3)C2=O)c2ccccc21	-2.3%	-11.2%
Cn1c(=O)oc2cc(S(=O)(=O)N3CCC(C(=O)Nc4ccc(F)c(Cl)c4)CC3)ccc21	9.8%	/
COc1ccc(N(CCC(=O)NCCc2ccccc2)S(=O)(=O)c2ccc(C)cc2C)cc1	-6.4%	/
COc1cc(C(=O)N/N=C/c2ccc(OC(=O)N3CCOCC3)cc2)cc(OC)c1OC	-7.3%	-8.4%
CCOC(=O)c1[nH]c(C)c(C(=O)OCC(=O)NC(=O)NC(C)(C)C)c1C	6.1%	18.3%
OC(c1ccccn1)C1CCN(Cc2nc(C(c3ccccc3)c3ccccc3)no2)CC1 (centres undefined)	4.2%	-6.4%
O=c1c2[nH]c3ccc(Br)cc3c2ncn1Cc1ccncc1	8.6%	10.3%
Cc1cc(C)n2nc(C(=O)Nc3cccc(S(=O)(=O)N(C)c4ccccc4)c3)nc2n1	14.2%	-6.3%
O=C(NCc1ccco1)/C(=C\c1ccco1)NC(=O)c1ccccc1Cl	0.6%	-3.4%
Cn1c(=O)c2c(nc(N3CCCCC3)n2CCSc2nc3ccccc3s2)n(C)c1=O	-5.4%	8.1%
COc1ccc(NC(=O)CN(C)S(=O)(=O)c2cccc3nsnc23)cc1OC	1.8%	3.8%
CC(=O)c1ccc(C(=O)N2CCCC(C(=O)c3ccc(Cl)cc3)C2)s1 (centres undefined)	16.5%	-4.5%

(listing goes on)
SMILES	FEN1 inh	N370S GC
CCOC(=O)N1CCC(NC(=O)C2CCN(S(=O)(=O)c3c(C)noc3C)CC2)CC1	6.0%	9.2%
CC(=O)Nc1ccc(S(=O)(=O)N2CCN(Cc3ccccc3[N+](=O)[O-])CC2)cc1	-1.6%	-2.4%
COc1c2occc2c(OC)c2c(=O)cc(C(F)(F)C(F)(F)F)oc12	-3.8%	7.6%
Cc1cccc(C)c1NC(=O)COC(=O)c1cc(-c2cccnc2)nc2ccccc12	14.0%	-2.7%
O=[N+]([O-])c1ccccc1NCc1ccc(Cl)cc1	4.1%	16.7%
Cc1ccc(S(=O)(=O)N(CC(=O)Nc2cccnc2)c2ccccc2C)cc1	9.9%	-19.2%
COC(=O)C(CCCCN1C(=O)C2C3C=CC(C3)C2C1=O)N1C(=O)C2C3C=CC(C3)C2C1=O (centres undefined)	6.3%	-18.4%
Cc1ccccc1C(=O)N[C@H](C(=O)OCC(=O)c1ccc[nH]1)C(C)C	3.4%	-4.0%
COc1ccc(-c2ccc(SCC(=O)c3cccs3)nn2)cc1	-6.8%	11.3%
CCCCn1c(NCc2ccccc2NS(=O)(=O)c2ccc(C)cc2)nc2ccccc21	-6.1%	-4.1%
CCOC(=O)C1=C(C)OC(N)=C(C(=O)OCC)C1c1cccnc1 (centres undefined)	-8.2%	1.0%
CCn1cc(C(=O)Nc2ccc(NC(=O)c3ccco3)cc2)c(=O)c2ccc(C)nc21	1.8%	0.8%
CCCCc1ccc(/C(C)=N/NC(=O)C2CCCC2)cc1	-1.1%	-4.9%
COc1cc(OC)cc(C(=O)N/N=C(\C)CC(=O)Nc2ccccn2)c1	4.3%	-2.9%
NC(=O)c1sc2nc(N3CCOCC3)c3c(c2c1N)CCCC3	-17.5%	1.8%
COc1ccccc1N1CCN(C(=O)c2nn(-c3ccc(C)cc3)c(=O)n(C)c2=O)CC1	-5.3%	/
COc1ccc(CNC(=O)CSc2nc3[nH]ncc3c(=O)n2-c2ccccc2Br)cc1	/	-13.3%
CCOc1ccc(C2C([N+](=O)[O-])=C(C)N(C)C(=O)N2C)cc1OC (centres undefined)	18.8%	1.8%
CCn1cc(C(=O)NCc2ccco2)c(=O)c2cc(S(=O)(=O)N3CC(C)CC(C)C3)ccc21 (centres undefined)	-0.8%	-34.6%
CN(C)CCCNC(=S)N1CCN(c2nc(-c3ccccc3)cs2)CC1	-5.6%	-21.5%
Cc1cc(NC(=O)CSc2nc3c([nH]c4ccccc43)c(=O)n2-c2ccccc2F)no1	10.0%&-7.2%	?
O=C(CN1C(=O)c2ccccc2C1=O)N1CCN(S(=O)(=O)c2ccccc2)CC1	21.5%	-3.8%
Brc1cc(Br)c2nc(-c3cccs3)ccc2c1	11.6%	23.3%
O=C(COc1ccccc1C(=O)Nc1ccccc1)NCCc1ccccc1	-14.6%&-2.0%	13.9%
Cc1cc(Cl)ccc1OCc1nnc2n1CCCCC2	-7.7%	0.5%

Other compounds follow.
SMILES	FEN1 inh	N370S GC
COCC(N)(c1ccccc1)c1nc2ccccc2n1C (centres undefined)	-7.9%	-4.8%
O=C1CCNc2ccc(-c3ccccc3)cc21	-1.4%	-10.0%
CC(C)NC(=O)C1CCCN(c2nnc(-n3cccc3)s2)C1 (centres undefined)	16.2%	-1.8%
CCOc1ccccc1N(CC(=O)Nc1ccc2c(c1)OCCO2)S(C)(=O)=O	-7.9%	0.3%
COc1ccc(N2C(=NC(=O)C3CC3)SC3CS(=O)(=O)CC32)cc1Cl (centres undefined)	0.9%	3.1%
O=C(Nc1ccccc1)N1CCCCC1c1cccnc1 (centres undefined)	2.0%	-1.9%
CCCCOc1ccc(CNC(=O)C2CCN(c3nnc(-n4cccc4CNc4ccc(C)cc4)s3)CC2)cc1	0.3%	/
CN(C(=O)CS(=O)(=O)c1cccc(Cl)c1)c1ccccc1	6.1%	1.6%
CCOc1ccccc1NC(=O)C1CCN(S(=O)(=O)c2c(C)noc2/C=C/c2ccc(C)cc2)CC1	0.1%	/
COc1ccc(C(=O)c2c3ccc([N+](=O)[O-])cc3[n+]([O-])n2CCCN)cc1	-2.7%	-25.8%
Cc1ccc(CCNC(=O)C2CCCN(S(=O)(=O)N3CC(C)CC(C)C3)C2)cc1 (centres undefined)	-5.2%	1.3%
O=C(CCC(=O)N(CC(=O)NC1CCCC1)Cc1ccccc1Cl)Nc1nccs1	-11.2%	-28.0%
CCOC(=O)c1c(-c2ccccc2)csc1NC(=S)NC	0.1%	24.2%
COC(=O)c1cccc(Cn2nnc3ccccc3c2=O)c1	5.9%	26.4%
CCC(C(=O)NCc1ccco1)n1nc(C)c2c(C)n(-c3ccc(C)cc3)nc2c1=O (centres undefined)	-0.7%&-10.5%	-8.7%
O=C(CSc1ccc(-c2ccco2)nn1)c1ccccc1	0.9%	-1.7%
O=C(CCSc1ccc(Cl)cc1)NC12CC3CC(CC(C3)C1)C2	0.7%	26.1%
O=C(Nc1ccc(Cl)cc1F)c1oc(=O)c2ccccc2c1-c1ccccc1	8.4%	/
O=C(N/N=C/c1ccccc1OC(F)F)c1cc(-c2ccncc2)nc2ccccc12	11.6%	-14.3%
CCS(=O)(=O)c1nc(S(=O)(=O)c2ccc(C)cc2)c(NCc2ccccn2)s1	-11.0%	4.7%
CCc1ccc(C(=O)CCC(=O)Nc2cccc(S(=O)(=O)N3CCCCC3)c2)cc1	-6.9%	1.7%
Cc1ccc(/C(O)=C2\C(=O)C(=O)N(C)C2c2cccc([N+](=O)[O-])c2)cc1 (centres undefined)	6.2%	4.5%
CCOC(=O)Cn1nnc(-c2cccc(OC)c2)n1	-13.2%	-10.3%
CCOc1ccccc1NC=C1C(=O)OC(C)(C)OC1=O	-2.3%	-3.6%
CC12CCC=CC1C(c1cccc([N+](=O)[O-])c1)N(Cc1ccccc1)C2=O (centres undefined)	-6.6%	-4.2%

New compounds follow:
SMILES	FEN1 inh	N370S GC
Cc1ccc(S(=O)(=O)N(C)CC(=O)O/N=C(\N)c2cccc([N+](=O)[O-])c2)cc1	-1.4%	12.3%
CCC(C)(C)n1nnnc1C(c1ccccc1OC)N1CCN(C(=O)c2ccco2)CC1 (centres undefined)	-2.0%	1.3%
CC(C)CCc1c(O)nc(SCC(C)C)[nH]c1=O	3.0%	-6.1%
CCc1ccc(C(=O)NNC(=O)C2CCN(c3ncnc4sc(C)c(C)c34)CC2)cc1	5.8%	-5.4%
O=C(CCS(=O)(=O)c1cc2c(cc1Cl)NC(=O)CO2)NCCc1ccccc1	-2.7%&22.9%	-2.3%
CC1CC(C)CN(c2cc(=O)n(Cc3ccc(F)cc3)c(=O)[nH]2)C1 (centres undefined)	-4.7%	5.5%
CN(c1ccc(C(=O)N2CCN(Cc3ccc4c(c3)OCO4)CC2)cc1)S(=O)(=O)c1ccccc1	-2.6%	-1.4%
COc1cc(OC)cc(-c2c(C#Cc3ccsc3)c3cc(-c4ccc(C(N)=O)cc4)ccc3n2C)c1	-8.1%	/
O=C(Nc1ccc(F)cc1)c1nn(-c2ccccc2)c(=O)cc1Cl	-2.4%	-3.6%
O=C(Nc1ccccc1N1CCCCC1)c1cccc([N+](=O)[O-])c1	-17.7%	0.6%
